Methyltransferases – Primary Screen for Target Class Profiling of Small Molecule Inhibitors of Methyltransferases; purified enzyme, MTase-Glo SAH luminescence; hits give low values; calls only at 40 µM; 3.9% of 25,000 active; AID 1745853, 2022; active = -50% or lower on at least one of six enzymes; inconclusive = the cases between; inactive = as a rule above -30% on all six;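 note: enzymes were COMT GAMT GNMT HNMT NNMT and PNMT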
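Each enzyme was reacted with SAM and its substrate, with compounds tested once at 40 uM; SAH formed was read by MTase-Glo luminescence.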
Calls only; i = inactive; ? = inconclusive; + = active, no number. % is set by controls: 0 for no effect and ±100 for the full control effect.

SMILES	Methyltransferases
CCOc1ccc(NC(=O)N2Cc3ccccc3-n3cccc3C2CC)cc1 (centres undefined)	i
O=C(Nc1ccc(F)cc1)N1Cc2ccccc2-n2cccc2C1c1cccc(Cl)c1 (centres undefined)	i
CCCNC(=O)N1Cc2ccccc2-n2cccc2C1c1ccc(F)cc1 (centres undefined)	i
Cn1nc(C2CCCNC2)n(C2CCCC2)c1=O (centres undefined)	i
CCCSc1ncc(CN2CCCC3(CCNC3)C2)cn1 (centres undefined)	i
Clc1ccc(N2CC3CCC(C2)N3)nn1	i
COc1cc(NC(=O)N2Cc3ccccc3-n3cccc3C2C)cc(OC)c1 (centres undefined)	i
CCOC(=O)c1cccc(NC(=O)N2Cc3ccccc3-n3cccc3C2c2ccc(SC)cc2)c1 (centres undefined)	i
NC(N)=Nc1ccc2[nH]c3c(c2c1)C[C@@]1(O)[C@H]2Cc4ccc(O)c5c4[C@@]1(CCN2CC1CC1)[C@H]3O5	i
CCc1ccc(C2c3cccn3-c3ccccc3CN2C(=O)Nc2ccccc2C)cc1 (centres undefined)	i
C=CC(C)(C)C12C=C(O)C(=O)N3/C(=C\c4cnc[nH]4)C(=O)NC31N(OC)c1ccccc12 (centres undefined)	?
Cc1ccc([C@H]2CN(C(=O)CN3C(=O)CNC3=O)[C@@H]3C4CCN(CC4)[C@H]23)cc1	i
COC1C(O)C(OC2CCC3(C=O)C(CCC4C3CCC3(C)C(C5=CC(=O)OC5)CCC43O)C2)OC(C)C1OC1OC(CO)C(O)C(O)C1O (centres undefined)	i
COc1ccc(C2c3cccn3-c3ccccc3CN2C(=O)Nc2ccccc2C)cc1 (centres undefined)	i
COC(=O)c1ccc(Cl)cc1NC(=O)N1Cc2ccccc2-n2cccc2C1c1ccccc1 (centres undefined)	i

Entries listed so far with an NH in an aromatic ring (two):
SMILES	Methyltransferases
NC(N)=Nc1ccc2[nH]c3c(c2c1)C[C@@]1(O)[C@H]2Cc4ccc(O)c5c4[C@@]1(CCN2CC1CC1)[C@H]3O5	i
C=CC(C)(C)C12C=C(O)C(=O)N3/C(=C\c4cnc[nH]4)C(=O)NC31N(OC)c1ccccc12 (centres undefined)	?

Carrying on:
SMILES	Methyltransferases
CCOC(=O)c1cccc(NC(=O)N2Cc3ccccc3-n3cccc3C2c2cc(F)cc(F)c2)c1 (centres undefined)	i
Cc1ncc2c(n1)C[C@@H]1CC[C@H]2N1S(=O)(=O)Cc1ccccc1	i
COc1cccc(CC(=O)N2CC[C@H]3C(=O)NCCCCCN(Cc4cccnc4)[C@@H]3C2)c1	i
CC1CCCC(O)CC(=O)Cc2cc(O)cc(O)c2C(=O)O1 (centres undefined)	i
Cc1cnc(C2CC2)n1C1CCNCC1	i
Cc1cccc(NC(=O)N2Cc3ccccc3-n3cccc3C2c2ccc(Cl)cc2)c1C (centres undefined)	i
Cc1noc(-c2ccc(N3CC4CC(C3)c3cccc(=O)n3C4)nc2)n1 (centres undefined)	i
CC(C)[C@@H](CN1CC[C@@](C)(c2cccc(O)c2)[C@@H](C)C1)NC(=O)[C@H]1Cc2ccc(O)cc2CN1	i
C=CCN1CC[C@]2(C)c3cc(O)ccc3CC1[C@@H]2C	?
CC(C)c1ccc(C2c3cccn3-c3ccccc3CN2C(=O)NCc2ccco2)cc1 (centres undefined)	i
Cc1ccccc1C1c2cccn2-c2ccccc2CN1C(=O)Nc1ccccc1F (centres undefined)	i
NC(CP(=O)(O)O)C(=O)O (centres undefined)	i
CC(C)(C)NC[C@H](O)c1ccc(O)cc1Cl	i
C[N+]1(C)C2CCC1CC(OC(=O)c1c[nH]c3ccccc13)C2 (centres undefined)	i
CCOc1ccccc1NC(=O)N1Cc2ccccc2-n2cccc2C1c1ccccc1C (centres undefined)	i
CC(C)CCNC(=O)N1Cc2ccccc2-n2cccc2C1c1cccc(Cl)c1 (centres undefined)	i
CCOc1ccc(C2c3cccn3-c3ccccc3CN2C(=O)NCCC(C)C)cc1 (centres undefined)	i
CCOc1ccccc1NC(=O)N1Cc2ccccc2-n2cccc2C1c1ccc(OC)c(OC)c1 (centres undefined)	i
COC(=O)c1ccc(NC(=O)N2Cc3ccccc3-n3cccc3C2c2ccccc2Cl)cc1 (centres undefined)	i
CN1CCC2=C(C1)c1ccccc1Cc1ccccc12	i
CCOc1ccc(NC(=O)N2Cc3ccccc3-n3cccc3C2c2cccs2)cc1 (centres undefined)	i
CCOC(=O)Cc1ccc(NC(=O)N2Cc3ccccc3-n3cccc3C2C(C)C)cc1 (centres undefined)	i
Cc1cccc(C2c3cccn3-c3ccccc3CN2C(=O)Nc2ccc(C)c(Cl)c2)c1 (centres undefined)	i
Cc1ccc(NC(=O)N2Cc3ccccc3-n3cccc3C2C)cc1Cl (centres undefined)	i
CCOC(=O)c1cccc(NC(=O)N2Cc3ccccc3-n3cccc3C2c2ccc(CC)cc2)c1 (centres undefined)	i
CCCN1CCO[C@H]2c3cc(O)ccc3OC[C@@H]21	i
O=C(O)C(Cl)Cl	?
COC1=C[C@@H]2[C@@H]3Cc4ccc(OC)c(O)c4[C@]2(CCN3C)CC1=O	i
COCCn1c(C)cc(C(=O)NC2CCc3nnc(C4CC4)n3CC2)c1C (centres undefined)	i
OC1CCCCC1N1CCC(c2ccccc2)CC1 (centres undefined)	i
C/C=C(/C)C(=O)O[C@H]1C(C)=C2[C@H]([C@@H]1OC(=O)CCCCCCC)[C@@](C)(OC(C)=O)C[C@H](OC(=O)CCC)[C@@]1(O)[C@H]2OC(=O)[C@@]1(C)O	i
C=C[C@H]1CN2CC[C@H]1C[C@H]2[C@H](O)c1ccnc2ccccc12	?
Oc1ccc2c3c1O[C@H]1c4[nH]c5c(N=C=S)cccc5c4C[C@@]4(O)[C@@H](C2)N(CC2CC2)CC[C@]314	?
Cc1ccc(NC(=O)N2Cc3ccccc3-n3cccc3C2C)cc1C (centres undefined)	i
CCCNC(=O)N1Cc2ccccc2-n2cccc2C1c1ccc(OC)cc1 (centres undefined)	i
CCOc1ccc(C2c3cccn3-c3ccccc3CN2C(=O)Nc2cc(F)ccc2F)cc1 (centres undefined)	i
COc1cccc(NC(=O)N2Cc3ccccc3-n3cccc3C2c2ccccc2C)c1 (centres undefined)	i
O=C(NCc1ccccc1)N1Cc2ccccc2-n2cccc2C1c1ccc(Cl)cc1 (centres undefined)	i
Cc1ccc(NC(=O)N2Cc3ccccc3-n3cccc3C2C)cc1F (centres undefined)	i
CCCNC(=O)N1Cc2ccccc2-n2cccc2C1c1ccc(N(C)C)cc1 (centres undefined)	i
CC(Cc1ccc(OCC(=O)O)cc1)NCC(O)c1cccc(Cl)c1 (centres undefined)	i
O=C(O)[C@@H]1CCN1	i
CC(C)NC(=O)N1CC[C@@H](CC(=O)O)[C@@H](CCN2C[C@@H]3C[C@H](C2)c2cccc(=O)n2C3)C1	i
CC(=O)O[C@@H]1[C@H]2CC[C@H]3[C@@](C)(O)[C@@H]4C[C@H](O)C(C)(C)[C@@]4(O)[C@H](O)C[C@@]13C[C@@]2(C)O	i
C=C[C@H]1CN2CC[C@H]1C[C@@H]2CNC(=O)Nc1ccc(Br)cc1	+
COC(=O)CCNC(=O)N1Cc2ccccc2-n2cccc2C1c1ccc(SC)cc1 (centres undefined)	i
CCOc1ccc(NC(=O)N2Cc3ccccc3-n3cccc3C2c2cc(F)cc(F)c2)cc1 (centres undefined)	i
Cn1c(CCCC(=O)O)nc2cc(N(CCCl)CCCl)ccc21	i
CCOc1ccc(NC(=O)N2Cc3ccccc3-n3cccc3C2c2ccc(Cl)cc2)cc1 (centres undefined)	i
O=C(Nc1cc(F)ccc1F)N1Cc2ccccc2-n2cccc2C1c1ccccc1 (centres undefined)	i
COc1cc(C(=O)O[C@H]2[C@@H]3C=CO[C@@H](O[C@@H]4O[C@H](CO)[C@@H](O)[C@H](O)[C@H]4O)[C@@H]3[C@@]3(CO)O[C@@H]23)ccc1O	+
CCCS(=O)(=O)N1C[C@@H]2C[C@H](C1)c1c(-c3ccccc3)ccc(=O)n1C2	i
O=C(Nc1ccccc1Br)N1Cc2ccccc2-n2cccc2C1c1cccs1 (centres undefined)	i
C[C@@H]1O[C@@H](O[C@H]2CC[C@@]3(C)C(CC[C@@H]4C3CC[C@]3(C)[C@@H](C5=CC(=O)OC5)CC[C@]43O)C2)[C@H](O[C@@H]2O[C@H](CO)[C@@H](O)[C@H](O)[C@H]2O)[C@H](O)[C@H]1O (some centres undefined)	i
C[C@]12CC[C@H](O[C@@H]3O[C@H](CO)[C@@H](O)[C@H](O)[C@H]3O)CC1=CC[C@@H]1C2CC[C@]2(C)[C@@H](C3=CC(=O)OC3)CC[C@]12O (some centres undefined)	i
Cc1ccccc1NC(=O)N1Cc2ccccc2-n2cccc2C1C (centres undefined)	i
CCOCCCNC(=O)N1Cc2ccccc2-n2cccc2C1c1ccc(OC)c(OC)c1 (centres undefined)	i
C[C@@H]1[C@H](O)[C@@H](C)/C=C/C=C/CC/C=C/C=C/C=C/C=C/[C@H](O[C@H]2O[C@@H](C)[C@H](O)[C@@H](N)[C@H]2O)C[C@@H]2O[C@](O)(C[C@@H](O)[C@H](O)CC[C@@H](O)C[C@@H](O)C[C@@H](O)CC(=O)O[C@H]1C)C[C@H](O)[C@H]2C(=O)O	i
COc1cccc(CNC(=O)N2Cc3ccccc3-n3cccc3C2c2ccc(N(C)C)cc2)c1 (centres undefined)	i
Cc1cc(C)cc(NC(=O)N2Cc3ccccc3-n3cccc3C2c2ccc(N(C)C)cc2)c1 (centres undefined)	i

In the list so far, 8 have sulfur:
SMILES	Methyltransferases
CCCSc1ncc(CN2CCCC3(CCNC3)C2)cn1 (centres undefined)	i
CCOC(=O)c1cccc(NC(=O)N2Cc3ccccc3-n3cccc3C2c2ccc(SC)cc2)c1 (centres undefined)	i
Cc1ncc2c(n1)C[C@@H]1CC[C@H]2N1S(=O)(=O)Cc1ccccc1	i
CCOc1ccc(NC(=O)N2Cc3ccccc3-n3cccc3C2c2cccs2)cc1 (centres undefined)	i
Oc1ccc2c3c1O[C@H]1c4[nH]c5c(N=C=S)cccc5c4C[C@@]4(O)[C@@H](C2)N(CC2CC2)CC[C@]314	?
COC(=O)CCNC(=O)N1Cc2ccccc2-n2cccc2C1c1ccc(SC)cc1 (centres undefined)	i
CCCS(=O)(=O)N1C[C@@H]2C[C@H](C1)c1c(-c3ccccc3)ccc(=O)n1C2	i
O=C(Nc1ccccc1Br)N1Cc2ccccc2-n2cccc2C1c1cccs1 (centres undefined)	i

Carrying on:
SMILES	Methyltransferases
CC1CCCC(=O)CCC/C=C/c2cc(O)cc(O)c2C(=O)O1 (centres undefined)	+
CN1C(=O)N(c2ccc(C#N)c(C(F)(F)F)c2)C(=O)[C@@]1(CO)c1ccccc1	i
CCc1ccc(C2c3cccn3-c3ccccc3CN2C(=O)Nc2ccc(OC)c(OC)c2)cc1 (centres undefined)	i
CCOc1ccccc1NC(=O)N1Cc2c(C)cc(C)nc2-n2cccc2C1c1ccc(F)cc1 (centres undefined)	i
CCc1ccc(C2c3cccn3-c3ccccc3CN2C(=O)NCc2ccccc2)cc1 (centres undefined)	i
NCC(O)c1cc(O)c(O)cc1F (centres undefined)	i
CCCCOC(=O)c1ccnc2cc(C(OCCN3CCCCC3)c3ccccc3Cl)sc12 (centres undefined)	?
COC(=O)C12C(=O)C(C)(O)C(=O)C1(C)C(C)=CC1C34CCC(OC3=O)C(C)(CO)C4CCC12C (centres undefined)	i
CCC1c2cccn2-c2ccccc2CN1C(=O)NCc1ccc(F)cc1 (centres undefined)	i
CC12CCC3C(CCC4(O)CC(O)CCC34C=O)C1(O)CCC2C1=CC(=O)OC1 (centres undefined)	i
O=C(Nc1ccc(F)cc1)N1Cc2ccccc2-n2cccc2C1c1cccs1 (centres undefined)	i
Nc1cc2c(ncn2CCOCP(=O)(O)O)c(=O)[nH]1	i
CCOC(=O)C1CCC(CNC(=O)N2Cc3ccccc3-n3cccc3C2c2ccccc2)CC1 (centres undefined)	i
CCOc1ccc(C2c3cccn3-c3ccccc3CN2C(=O)Nc2cccc(C)c2C)cc1 (centres undefined)	i
O=C(NCc1ccco1)N1Cc2ccccc2-n2cccc2C1c1ccc(Cl)cc1 (centres undefined)	i
CC1c2cccn2-c2ccccc2CN1C(=O)Nc1ccc(Br)cc1 (centres undefined)	i
CCc1ccc(C2c3cccn3-c3ccccc3CN2C(=O)Nc2ccccc2F)cc1 (centres undefined)	i
O=C(N[C@H]1N=C(c2ccccc2F)c2cccc3c2N(CC3)C1=O)c1cc2ccccc2[nH]1	i
Cc1cccc(C2c3cccn3-c3ccccc3CN2C(=O)Nc2ccccc2C)c1 (centres undefined)	i
Cc1ccccc1C1c2cccn2-c2ccccc2CN1C(=O)Nc1ccccc1 (centres undefined)	i
CN1C(=O)C(Cc2ccc3ccccc3c2)N=C(c2ccc(O)cc2)c2cc(Cl)ccc21 (centres undefined)	i
COc1cccc(CNC(=O)N2Cc3ccccc3-n3cccc3C2c2ccccc2Cl)c1 (centres undefined)	i
COC[C@]12CN(C)C3C4[C@H](OC)[C@H]1C3(C(OC)C[C@H]2O)[C@H]1C[C@@]2(O)[C@H](OC(=O)c3ccccc3)[C@@H]1[C@]4(O)[C@@H](O)[C@@H]2OC (some centres undefined)	i
CC[C@H]1/C=C\C=C/C[C@@H](C)[C@H](O)[C@@](C)(O)C(=O)[C@@H](C)[C@H](O)[C@@H](C)C(=O)[C@@H](C)[C@H](O)[C@@H](C)/C=C\C(=O)O[C@@H]2[C@H](C)[C@H](CC1)O[C@]1(CC[C@H](C)[C@H](C[C@@H](C)O)O1)[C@H]2C	i

Screening results (PubChem)

A portion of the library. The share of hits here may be higher or lower than overall.
